Bioassay records: PubChem, several laboratories
FGF22 binding – FGF22 (human) thermal shift binding. Q9HCT0. recombinant FGF22 thermal shift, SYPRO orange fluorescence; percent of sucrose octasulfate shift, DMSO zero. calls only at 9.99 µM. actives 1.5% (n = 340,000). AID 651658;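 active means melting point raised past a set limit in the mean and every replicate; inconclusive means no clear call; three in four hits are not shown here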
Target sequence (Q9HCT0 whole entry, looked up): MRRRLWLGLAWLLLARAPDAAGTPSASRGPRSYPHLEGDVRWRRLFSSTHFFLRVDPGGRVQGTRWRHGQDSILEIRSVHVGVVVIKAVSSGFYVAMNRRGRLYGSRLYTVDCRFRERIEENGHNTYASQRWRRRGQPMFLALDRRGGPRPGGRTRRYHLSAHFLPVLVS
MLL AF4-AF9 inh – inhibitors of human MLL-AF4/AF9 interaction. P42568. AlphaScreen, biotin-AF4 peptide binding to FLAG-AF9. inhibition, % at 10 µM. actives 0.47% (n = 350,000);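 active means every replicate reaching a set inhibition limit, whatever the replicate mean, cut at about 25% in these data; inconclusive means mean inhibition reaches that limit but some replicates miss it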;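 further: 0% = plate neutral control median and 100% = total signal loss; the record names both 10 and 1 µM as test concentration; the first replicate is given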
Target sequence (P42568 whole entry, looked up): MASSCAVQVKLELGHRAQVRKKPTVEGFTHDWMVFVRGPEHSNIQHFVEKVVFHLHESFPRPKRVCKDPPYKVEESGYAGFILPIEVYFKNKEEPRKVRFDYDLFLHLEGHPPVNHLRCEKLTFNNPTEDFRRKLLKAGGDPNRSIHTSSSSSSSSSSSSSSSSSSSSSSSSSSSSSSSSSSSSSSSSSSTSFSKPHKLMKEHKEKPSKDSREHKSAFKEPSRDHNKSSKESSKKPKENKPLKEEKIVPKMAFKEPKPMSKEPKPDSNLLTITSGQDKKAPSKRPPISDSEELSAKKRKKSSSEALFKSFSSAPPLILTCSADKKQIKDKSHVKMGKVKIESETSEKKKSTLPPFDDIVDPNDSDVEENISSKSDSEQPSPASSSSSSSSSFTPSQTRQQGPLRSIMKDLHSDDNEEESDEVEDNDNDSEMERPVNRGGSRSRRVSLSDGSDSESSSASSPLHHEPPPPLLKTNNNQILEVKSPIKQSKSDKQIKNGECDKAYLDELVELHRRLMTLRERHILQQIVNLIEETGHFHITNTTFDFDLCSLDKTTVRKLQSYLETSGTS
Ecoli growth – blocks Escherichia coli growth. OD600, 23 h; stronger effect = lower value. OD600 absorbance (test concentration not listed). actives 0.21% (n = 330,000);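 active means OD600 absorbance below the run mean of sample wells minus 3.6 SD, in any replicate, cut at about 0.56 in these data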;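 further: stock transfer was 300 nL into about 60 µL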
ALR H2O2 inh – blocks human ALR sulfhydryl oxidase activity | AID 485317 | actives 3.8% (n = 290,000) | purified ALR, DTT oxidation, H2O2 HRP-luminol luminescence | P55789 | inhibition, % (concentration not given with the values);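 active means mean and each replicate at 75% or more; inconclusive means only one of the two met; inactive means neither met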;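 further: stock transfer was 7.5 nL into about 7.5 µL; 0% = neutral wells and 100% = wells with inactivated enzyme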
Target sequence (P55789 whole entry, looked up): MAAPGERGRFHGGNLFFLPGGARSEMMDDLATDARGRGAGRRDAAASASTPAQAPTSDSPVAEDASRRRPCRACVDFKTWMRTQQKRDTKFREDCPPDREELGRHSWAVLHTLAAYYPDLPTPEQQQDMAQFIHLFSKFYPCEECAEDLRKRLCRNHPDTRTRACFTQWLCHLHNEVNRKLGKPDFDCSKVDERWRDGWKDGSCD
Vif TR-FRET – HIV-1 Vif–A3G interaction blockers – biochemical, TR-FRET, GST-Vif 1-94, biotin-A3G peptide, dose response retest, primary screen (AID 1117319) | TR-FRET GST-Vif / biotin-A3G peptide binding; higher % means a stronger effect; test concentration not given here; strong numbers were not always called active | inhibition, %, or IC50 in µM where a hit was titrated | actives 0.57% (n = 260,000);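 active means above the screen mean plus three standard deviations and confirmed in dose response; inconclusive means results disagree or hit not tested in dose response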;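 further: Vif residues 1-94 fused to GST binding biotinylated APOBEC3G peptide 110-148; 0% = full assay without inhibitor and 100% = GST in place of GST-Vif; retest series ran down from 100 µM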
HNF4A DNA FP – change in binding of human HNF4 alpha to DNA; actives 0.3% (n = 360,000); P41235; activity change, % at 10 µM; HNF4a-FITC DNA binding, fluorescence polarization, 1 h; in the data active means activity change above about 30%, passing the limit was not always enough;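 further: controls were the assay level and a saturating level of protein; the project sought stronger binding though the title names inhibitors; some compounds called inactive have numbers as strong as hits; positive values seem to mean higher polarization but the record does not say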
Ecoli rRNA inh – inhibits bacterial ribosomal RNA function over humanized ribosomes. E. coli WT GFP vs humanized-ribosome RFP mutants, fluorescence, 24 h; stronger effect = lower value; DMSO median 0, no signal -100. GFP signal change (wild-type ribosome), % (no concentration beside the values). actives 1.6% (n = 350,000);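 active means significant combined selectivity score with lowered wild-type GFP, culture density cut under 30%, mutant RFP and density less affected; inactive means any of these conditions unmet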; further: one replicate is shown; some compounds called inactive have numbers as strong as hits
Ecoli rRNA inh OD600 – also measured in Ecoli rRNA inh; calls as there; OD600 change, %; measured here: OD600 growth;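 optical density of the mix in the first replicate; 0 = DMSO median and -100 = no signal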
Ecoli rRNA inh RFP – also measured in Ecoli rRNA inh; calls as there; RFP signal change, %; measured here: RFP humanized mutant strains;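 first replicate; 0 = DMSO median and -100 = no signal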
* = called active by the depositor; i = inactive; ? = inconclusive; · = no result given; & = joins results of further samples.

SMILES	FGF22 binding	MLL AF4-AF9 inh	Ecoli growth	ALR H2O2 inh	Vif TR-FRET	HNF4A DNA FP	Ecoli rRNA inh	Ecoli rRNA inh OD600	Ecoli rRNA inh RFP
O=C(OCc1nc2ccsc2c(=O)[nH]1)c1cccc(S(=O)(=O)N2CCOCC2)c1	i	0.9	0.7	-1	-3%	2.2	10	15	-2.1
COc1ccccc1CNCC(=O)Nc1cc(S(=O)(=O)N2CCCCC2)ccc1C	i	3.8	0.66	·	-8%	5.1	-5	-3	8.1
O=S(=O)(c1ccc(Br)cc1F)N1CCC(O)CC1	i	-0.4	·	·	·	1.1	10	9	-1.3
O=C(CN1CCC(C(=O)c2ccc(Cl)cc2)CC1)NC1CCCC1	i	1.3	0.64	-1	-12%	3.0	0	3	1.2
COc1ccccc1C(=O)Nc1ccnn1C1CCN(C/C=C/c2ccccc2)CC1	i	5.0	0.69	-3	·	-1.4	-8	-3	0.8
COc1ccccc1Cc1c(-c2ccc(OC)c(OC)c2)nc2c(C)cc(Br)cn12	i	1.7	·	·	·	4.6	-7	-3	-2.4
N#Cc1nc(-c2cccc(Cl)c2)oc1N1CCC(C(N)=O)CC1	i	1.2	0.7	·	0%	-4.7	-2	-4	-0.5
Cc1occc1C(=O)Nc1cccc(Cn2cccn2)c1	·	·	0.66	2	15%	0.4	·	·	·
Cc1ccc(-c2cc(C(=O)NCc3ccccn3)c3ccccc3n2)cc1C	·	·	0.68	-5	?	-1.4	-4	-13	5.2
O=C(Nc1ccc(CN2CCOCC2)cc1)c1ccc(Cl)cc1	i	-9.4	0.66	-2	·	1.7	10	7	-1.9
Cc1noc(C)c1NC(=O)N(C)C[C@H]1OCc2cnnn2CCCC(=O)N([C@@H](C)CO)C[C@@H]1C	i	-1.2	·	·	·	·	0	2	-0.8
CC1=C(C(=O)OCc2ccccc2)C(c2ccsc2)NC(=O)N1C (centres undefined)	i	-10	0.73	-7	1%	-1.5	4	-10	-4.7
Cn1cnc(S(=O)(=O)Nc2ccc(C(F)(F)F)cc2)c1	·	·	0.79	·	4%	-0.6	·	·	·
O=C(COC(=O)c1ccc(Br)o1)NCC1CCCCC1	i	-2.5	0.68	-1	-5%	1.3	-6	0	0.0
Cc1ccc2c(c1)sc1nc(=O)n(-c3ccccc3)c(=O)n12	i	0.4	0.67	-1	·	0.0	20	7	2.9
COc1ccc2c3c(n(C)c2c1)[C@@H](CO)N(CC1CC1)CC31CCN(C(=O)c2ccc(F)cc2)CC1	i	2.0	·	·	·	·	-3	1	2.8
CCN(CCO)Cc1csc2c(Br)cccc12	·	·	0.63	-7	4%	-1.9	·	·	·
CCCNC(=O)Cn1cnc2sc(C(=O)NCCN(CC)CC)c(C)c2c1=O	·	·	0.81	2	13%	1.7	·	·	·
CO[C@H]1CN(C)C(=O)c2ccc(NS(=O)(=O)c3ccccc3)cc2OC[C@@H](C)N(Cc2nccs2)C[C@H]1C	i	1.2	·	·	·	·	-2	-2	0.9
C[C@H](CO)N1C[C@H](C)[C@@H](CN(C)C(=O)c2ccncc2)Oc2cc(C3=CCCC3)ccc2S1(=O)=O	i	-2.1	·	·	·	·	1	-7	-2.9
CCC(C)(C)NS(=O)(=O)c1cc(CN2C(=O)c3cccnc3C2=O)ccc1OC	i	-13	0.62	-8	4%	-0.8	12	10	-0.7
CC(=O)c1c(C)n(-c2ccccc2)c2ccc(OCC(O)CN3CCOCC3)cc12 (centres undefined)	i	1.5	0.7	7	0%	5.7	-3	-6	2.0
CCNC(=O)C[C@H]1CC[C@H]2[C@@H](COc3ccc(NC(=O)c4ccc5c(c4)OCO5)cc3C(=O)N2C)O1	i	-2.5	·	·	·	·	-2	1	-2.5
Cc1ccc(C)c(CSC2=NN3CCCC(=O)N=C3S2)c1	i	-36	0.63	-3	·	-3.1	-21	-21	-0.1
COC(=O)c1ccccc1NC(=O)N1CCc2ccc(NC(=O)c3ccccn3)cc2C1	i	-0.4	0.69	·	2%	3.8	-8	-12	11
c1ccc(Cc2ccc(OCCn3ccnc3)cc2)cc1	i	3.1	0.58	20	·	1.2	-36	-68	-1.1
O=C(NCCCn1ccnc1)/C(=C\c1cccnc1)NC(=O)c1cccc(Br)c1	·	·	0.71	-8	·	2.0	·	·	·
CCOC(=O)Cc1cc(=O)n2[nH]c(-c3ccc(Cl)cc3)cc2n1	·	·	0.65	-12	-8%	1.7	·	·	·
Cc1ccsc1C1NC(=O)c2c(sc3c2CCN(C)C3)N1 (centres undefined)	i	-11	0.73	·	6%	16	5	3	5.8
CC(C)C[C@H](NC(=O)c1[nH]cnc1C(=O)N[C@@H](C)C(=O)OC(C)(C)C)C(=O)OC(C)(C)C	i	·	·	-2	3%	3.9	-8	-20	8.4
COC(=O)[C@]12C[C@H](CC(=O)NCc3cccc4ccccc34)C(=O)N(CCc3ccc(OC)c(OC)c3)C1=C[C@H](C(C)(C)C)O[C@@H]2C	i	1.3	·	·	·	·	14	11	7.3
O=S(=O)(NC1=NCCCCC1)c1ccc(F)cc1	i	-16	0.71	1	-13%	0.7	5	2	-7.8
Cc1cc(C(=O)OCC(=O)NC(C)c2ccc(F)cc2)c(C)o1 (centres undefined)	i	-2.4	0.66	1	·	3.2	6	11	-0.6
Oc1c(Cl)cc(Cl)cc1/C=N/Nc1ncc(Br)cn1	·	-0.7	·	-2	-4%	1.6	5	43	6.2
CSc1ccccc1NC(=O)Cc1ccc(Br)cc1	·	·	0.75	·	3%	3.5	·	·	·
CC1(CCc2ccc3c(c2)OCO3)NC(=O)c2ccccc2N1 (centres undefined)	·	·	0.65	6	66%	-2.3	·	·	·
COc1ccc(CCNC(=O)CSc2nc(C)nc3c2c(=O)n(C)c(=O)n3C)cc1OC	i	15	0.7	-11	·	0.2	6	21	0.2
COc1ccc(NC(=O)[C@@H]2CCCN2S(=O)(=O)c2ccc(Cl)cc2)cc1	i	-2.2	0.67	·	-13%	0.7	-3	-4	0.8
O=c1c2c(n3cnnc3n1-c1ccccc1)-c1ccccc1CC21CCCCC1	·	·	0.74	-2	-4%	-4.4	·	·	·
C=CC(c1ccccc1)C(C(=O)c1ccccc1)N(C)C (centres undefined)	i	1.9	0.69	·	-1%	-0.9	5	4	-2.8
CCCOc1ccc(N2C(=O)CC(SC(=N)N3N=C(c4ccccc4)CC3c3ccccc3)C2=O)cc1 (centres undefined)	i	-1.3	0.73	3	-3%	-0.9	9	3	-4.7
CCc1cc2c(=O)c(-c3nc4ccccc4n3C)coc2c(CN2CCC(C)CC2)c1O	i	-1.0	0.65	·	·	-1.1	9	12	0.6
O=S(=O)(NCCc1ccccn1)c1ccc(-c2ccccn2)s1	i	-0.6	0.57	-10	-2%	1.1	1	1	1.4
COc1ccc(CN2CCN(Cc3ccc(C(F)(F)F)cc3)CC2)cc1	i	3.7	0.58	1	·	-2.7	-8	-8	-1.8
O=C(Nc1ccc2c(c1)OCCO2)C1c2ccccc2OCC(=O)N1Cc1cccnc1 (centres undefined)	i	0.8	·	·	·	3.6	11	10	2.8
Cc1nn(Cc2ccc([N+](=O)[O-])cc2)c(=O)n1-c1c(F)cccc1F	·	·	0.62	-3	-4%	-0.9	·	·	·
O=C1NC2=C(C(=O)CCC2)C(c2ccccc2[N+](=O)[O-])N1 (centres undefined)	i	-6.1	0.67	·	·	-11	9	13	-2.8
Cc1ccc[n+](C(C)C(=O)c2ccc(-c3ccccc3)cc2)c1 (centres undefined)	i	7.6	0.62	-4	-2%	-3.0	-13	-1	-4.4
C[C@@H]1CCCCO[C@H](CN(C)C(=O)Nc2ccc3c(c2)OCO3)[C@@H](C)CN([C@H](C)CO)C(=O)c2cc(NC(=O)Nc3ccc(F)cc3)ccc2O1	i	1.2	·	·	·	·	1	3	-1.3
O=C(O)CSc1ncnc2scc(-c3ccccc3)c12	·	7.6	0.76	·	-34%	4.6	1	-8	-4.9
CC(C)(C)OC(=O)N1CCC[C@H]1c1nnc(SCc2ccccc2F)o1	·	·	0.75	-7	6%	-4.1	·	·	·
C[C@@H]1CCCCO[C@@H](CN(C)C(=O)Nc2ccccc2)[C@@H](C)CN([C@H](C)CO)C(=O)c2cc(NC(=O)Cc3ccccc3)ccc2O1	i	0.4	·	·	·	·	8	5	-0.4
CCN(CC)C(=O)C1CCCN(c2ccc([N+](=O)[O-])cc2/C=N/NC(=O)c2cccc(Br)c2)C1 (centres undefined)	·	·	·	-4	-2%	-0.3	·	·	·
CCc1ccc(CSc2nccn2-c2ccccc2)cc1	·	·	0.79	10	1%	-2.3	·	·	·
O=[N+]([O-])c1cccc(COc2ccc(CO)cc2)c1	i	-0.6	·	·	·	·	5	23	-2.2
C=CCNC(=O)Nc1ccc(Br)cc1Cl	i	-2.7	0.69	-6	22%	1.7	9	3	0.1
C[C@H](CO)N1C[C@H](C)[C@@H](CN(C)C(=O)CN(C)C)Oc2ncc(C#Cc3ccccc3)cc2C1=O	i	16	·	·	·	·	4	5	-2.6
CCCNC(=S)Nc1ccc(Cl)cc1C	·	·	0.68	49	0%	-2.8	·	·	·
CC(C)C[C@@H](CO)NS(=O)(=O)c1c(F)cccc1F	i	-3.0	·	·	·	2.9	-7	3	-3.5
Cc1sc(=NC(=O)c2ccco2)n(C)c1-c1ccccc1	·	·	0.65	5	-3%	0.0	·	·	·
Next entries:
SMILES	FGF22 binding	MLL AF4-AF9 inh	Ecoli growth	ALR H2O2 inh	Vif TR-FRET	HNF4A DNA FP	Ecoli rRNA inh	Ecoli rRNA inh OD600	Ecoli rRNA inh RFP
Cc1nc2c(-c3ccc(F)cc3)cnn2c2c1CCC2	i	-8.1	0.69	1	-5%	0.6	0	2	-2.3
COc1ccc(CN(C)C[C@@H]2Oc3ccc(NC(=O)CCC(F)(F)F)cc3CC(=O)N([C@@H](C)CO)C[C@H]2C)cc1	i	-0.1	·	·	·	·	-1	-4	-0.1
Cc1nnc(-c2cnn(C)c2N)n1Cc1cccc(Cl)c1	·	·	0.68	2	6%	-1.1	·	·	·
CC(C)NC(=O)N(C)C[C@@H]1OCCCC[C@H](C)Oc2ccc(NS(C)(=O)=O)cc2C(=O)N([C@@H](C)CO)C[C@H]1C	i	0.1	·	·	·	·	3	10	-0.1
COc1ccc(N2CCN(C(=S)Nc3cccc(C)c3)CC2)cc1	i	-43	0.73	-7	2%	1.2	15	2	-2.4
CC(C)NC(=O)Nc1cccc2c1O[C@H](CN(C)C(=O)NC(C)C)[C@@H](C)CN([C@H](C)CO)C2=O	i	0.7&0.4	0.7	·	2%	3.6	1&16	-1&10	0.5&1.8
COc1ccc(C(=O)N/C(=C\c2cccc3ccccc23)C(=O)N2CCN(C)CC2)cc1OC	·	2.5	0.66	-10	1%	1.8	-4	-2	-2.1
Cc1ccc(-c2csc(NC(=O)CN3CCOCC3)n2)cc1	i	2.6	0.68	-3	·	6.8	-8	-10	0.9

Arranged by SMILES length (lowest first): three of the compounds above.
SMILES	FGF22 binding	MLL AF4-AF9 inh	Ecoli growth	ALR H2O2 inh	Vif TR-FRET	HNF4A DNA FP	Ecoli rRNA inh	Ecoli rRNA inh OD600	Ecoli rRNA inh RFP
Cc1nc2c(-c3ccc(F)cc3)cnn2c2c1CCC2	i	-8.1	0.69	1	-5%	0.6	0	2	-2.3
Cc1nnc(-c2cnn(C)c2N)n1Cc1cccc(Cl)c1	·	·	0.68	2	6%	-1.1	·	·	·
Cc1ccc(-c2csc(NC(=O)CN3CCOCC3)n2)cc1	i	2.6	0.68	-3	·	6.8	-8	-10	0.9

A portion of the library; rates above refer to the full screens.
